CBX7 AlphaScr: CBX7 chromodomain binding inhibitors, primary screen, biochemical, AlphaScreen; 1.1% of 66,000 active; AID 1224903, 2016; Chromobox protein homolog 7 (Homo sapiens), O95931; normalised signal (fraction of DMSO) (concentration not given with the values); AlphaScreen His6-CBX7 / biotin-H3K27me3 peptide binding; hits give low values; in the data active means normalised signal below about 0.5;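 further: 100 nL library stock added to about 20 µL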
Target sequence (O95931 whole entry, looked up): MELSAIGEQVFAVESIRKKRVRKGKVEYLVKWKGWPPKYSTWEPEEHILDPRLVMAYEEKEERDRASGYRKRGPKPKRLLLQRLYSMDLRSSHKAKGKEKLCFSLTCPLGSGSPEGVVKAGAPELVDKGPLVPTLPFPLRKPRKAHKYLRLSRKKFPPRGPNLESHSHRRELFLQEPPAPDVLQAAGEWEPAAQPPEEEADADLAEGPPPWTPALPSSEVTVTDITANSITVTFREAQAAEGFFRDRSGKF
CBX7 AlphaScr z-score: further read-out of CBX7 AlphaScr, marked with its call; z-score; measured here: z-score of CBX7 signal; some inactives read as strong as hits; reference of the scale not given here;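 same signal on another scale; lower means less binding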
An asterisk follows results filed as active. The list is partial; count on the stated rates, not on these rows.

SMILES	CBX7 AlphaScr	CBX7 AlphaScr z-score
CCC(C)C(NC(=O)C1CCC(C)CC1)C(=O)NCCc1ccc(S(N)(=O)=O)cc1 (configuration not stated)	0.99	-0.34
COCCNC(=O)CN1C(=O)CCSc2ccccc21	1	1.4
O=C(NCCc1c[nH]c2ccccc12)c1ccc(Cl)c(NC2=NC3CS(=O)(=O)CC3S2)c1 (configuration not stated)	0.97	-0.74
Cc1ccc(S(=O)(=O)c2nc(-c3ccc(F)cc3)oc2SCC(N)=O)cc1	1	0.19
O=S1(=O)N=C(Nc2cccc3ccccc23)c2ccccc21	1	0.076
CCOC(=O)C1CCN(C(=O)C2CCN(c3nc4ccc(OC)cc4s3)CC2)CC1	1.2	1.8
CCn1c(C(=O)N2CCC(C(=O)NCC(OC)OC)CC2)cc2sccc21	0.85	-2
CCOc1ccc2nc(N3CCC(C(=O)NCc4cccc(Cl)c4)CC3)sc2c1	1.1	2.5
Cc1cc(C)n(CC(O)COc2ccccc2C(=O)Nc2ccccc2)n1 (configuration not stated)	1.1	2.3
Cc1ccccc1OCc1nc(C#N)c(NCc2ccc3c(c2)OCO3)o1	0.91	-3.9
COc1ccc(C2CC(c3ccccc3C)n3ncnc3N2)cc1 (configuration not stated)	0.98	-0.77
COc1ccc(-c2nc(C(=O)NCC(OC)OC)c(C)o2)cc1	1	0.54
CCC1CCCCN1C(=O)C1CC(c2ccc(F)cc2)=NO1 (configuration not stated)	1	0.0027
Oc1ccc(/C=C/c2ccc3cccc(OCc4ccccc4Cl)c3n2)cc1	1	0.28
CC(C)c1ccc(NC(=O)C(NS(=O)(=O)c2ccc3c(c2)CCC(=O)N3)c2ccccc2)cc1 (configuration not stated)	0.97	-1.3
COc1ccc(-c2nn(C)c3sc(C(=O)NCc4ccc(C)cc4)cc23)cc1OC	1.1	1.6
O=C(Nc1ncc(Cc2ccc(F)cc2)s1)c1cccs1	1.1	0.5
O=C(NC1CCCC1)c1ccc2c(c1)NC(=O)c1ccccc1N2	1	1.8
COc1ccc(-c2c(C)nn3c(NCc4ccccc4)cc(C)nc23)cc1OC	0.95	-0.11
Cc1ccccc1Nc1nc(-c2ccc(Cl)cc2)nc2ccccc12	1.2	1.6
COc1ccc(OC)c(Nc2cc(C(=O)NCCc3ccc(C)cc3)c3ccccc3n2)c1	1	-0.067
CC(=O)N1CCc2cc(S(=O)(=O)NC(C)(C)C)ccc21	1.1	1.2
CCOC(=O)c1cnc2c(C)c(Cl)ccc2c1Nc1ccc(C)c(Cl)c1	1.1	0.83
CC1CCN(CCNC(=O)c2ccc3c(c2)NC(=O)c2ccccc2N3)CC1	1.1	0.75
CCC(C)NC(=O)c1ccc2c(c1)N(Cc1ccc(Cl)cc1)C(=O)c1ccccc1S2 (configuration not stated)	1.2	2.1
(cont.)
SMILES	CBX7 AlphaScr	CBX7 AlphaScr z-score
CCc1nn(-c2ccccc2F)c2c1C(=O)CC(c1ccccc1)C2 (configuration not stated)	0.97	-0.73
CCCCNC(=O)CNC(=O)Cn1ccc2ccccc2c1=O	1.3	2.6
CCC(Sc1nc2ccccc2[nH]1)C(=O)Nc1cc(C)on1 (configuration not stated)	0.96	-0.047
CCc1ccc2c(c1)c(=O)c(S(=O)(=O)c1ccc(F)cc1)cn2CC(=O)Nc1ccc(C)cc1	0.93	-2.1
CCC(=O)N1CCc2cc(S(=O)(=O)NC(C(=O)NCc3ccc(F)cc3)C(C)C)ccc21 (configuration not stated)	1.1	1.5
Cc1ccc(CNC(=O)C2CCCN(Cc3nc(-c4cccc(Cl)c4)oc3C)C2)cc1 (configuration not stated)	1	0.36
CC(C)(C)c1ccc(C(=O)Nc2nnc(Cc3ccccc3)s2)cc1	1.4	0.99
CCCN(C(=O)Cc1c(C(=O)O)[nH]c2ccccc12)c1ccc(C(C)C)cc1	0.98	-0.54
O=C(Nc1ncc(Cc2ccccc2Cl)s1)c1ccc(OCc2ccccc2)cc1	1.1	0.69
Cc1ccc(-c2ccc(=O)n(CC(=O)NC(C)c3ccccc3)n2)cc1 (configuration not stated)	1	1
CC1CCN(C(=O)CSc2nnc(COc3ccc(Cl)cc3)o2)CC1	1.2	1.7
O=C(CCc1nc2sc3c(c2c(=O)[nH]1)CCCC3)NCc1ccccn1	0.34*	-3.1*
CC(=O)N1CCc2cc(S(=O)(=O)Nc3cccc(Cl)c3)ccc21	1.1	2.3
CCN1CCN(c2ncc(C(=O)Nc3cccc(Cl)c3)c3ccccc23)CC1	1.7	1.3
CCC1=Nc2cc(C(=O)NCc3cccs3)ccc2Sc2ccccc21	0.91	-1.1
COc1cccc(-c2cc(C(=O)NCCCN3CCOCC3)no2)c1	1	0.15
Cc1ccc(CN2C(=O)CCC2C(=O)N2CCN(c3ccccc3)CC2)cc1 (configuration not stated)	1	0.2
CCCNC(=O)c1ccc2c(c1)N(Cc1ccccc1)C(=O)c1ccccc1S2=O (configuration not stated)	0.97	-0.61
Cc1ccc(C)c(Cc2c(C)nc3c(C(=O)N4CCN(c5ccc(F)cc5)CC4)cnn3c2C)c1	0.98	-0.97
CCc1c(C)sc(NC(=O)c2c(-c3ccccc3Cl)noc2C)c1C(=O)OC(C)C	1.5	1.2
Cc1[nH]nc(-c2ccccc2)c1Sc1ccccc1	1	-0.033
O=C(NC1CCCCC1)c1cccc(NC2=NC3CS(=O)(=O)CC3S2)c1 (configuration not stated)	1	0.31
Cc1onc(-c2c(Cl)cccc2Cl)c1C(=O)N1CCCCCC1	0.95	-0.31
CCC(=O)Nc1cc(-c2nn(C)c(=O)c3ccccc23)ccc1N1CCOCC1	0.93	-0.76
OCCN(CCO)c1cc(-n2nc(-c3ccccc3)cc2-c2ccccc2)ncn1	0.93	-0.73

Record cards (already shown). Order of values: CBX7 AlphaScr, CBX7 AlphaScr z-score
CCCCNC(=O)CNC(=O)Cn1ccc2ccccc2c1=O reads 1.3, 2.6
CC(C)(C)c1ccc(C(=O)Nc2nnc(Cc3ccccc3)s2)cc1 reads 1.4, 0.99

(listing goes on)
SMILES	CBX7 AlphaScr	CBX7 AlphaScr z-score
O=C(Cn1nc(Cc2ccncc2)c2ccccc2c1=O)N1CCC(Cc2ccccc2)CC1	1	1.1
CC1CCN(C(=O)c2nn(C)c(=O)c3ccccc23)CC1	1	1.1
Cc1ccc(-c2nnc(SCC(=O)N3CCCC3)o2)cc1	0.94	-0.15
CC1(C)CNC(=O)c2sc(NC(=O)c3ccccc3)nc2C1	1.2	1.8
Cc1ccccc1-c1nc(-c2ccc(Cl)cc2)no1	1.3	2.4
COc1cc(OC)cc(-c2cc3nc(C)c(CCC(=O)Nc4ccc(OC)cc4OC)c(C)n3n2)c1	1.1	1.9
CCCc1nn(-c2cc(Cl)ccc2OC)c2c1C(=O)CC(C)(C)C2	1	0.061
Cc1ccc(C(=O)c2nocc2C(=O)c2ccc(Cl)cc2)cc1	1.1	1
CCCc1c(C(=O)OCC)[nH]c2c1C(=O)CC(c1ccccc1)C2 (configuration not stated)	1	0.73
CCC(C(=O)Nc1ccccc1F)n1c(SCc2cc(C)ccc2C)nc2ccncc21 (configuration not stated)	0.96	-2.1
Cc1cc2cc(CCNC(=O)Cc3ccccc3)c(=O)[nH]c2cc1C	1	1.3
CCCOc1ccc(-c2csc(NC(=O)c3ccc(S(=O)(=O)N4CCOCC4)cc3)n2)cc1	0.96	-1.5
Cc1ccc(C2Nc3ccccc3NC3=C2C(=O)CC(c2ccc(Cl)cc2)C3)cc1 (configuration not stated)	0.81	-1.3
CCOC(=O)c1cccc(NC(=O)C2CCN(S(=O)(=O)c3cccnc3)CC2)c1	1	1.7
Cc1ccc(CN2C(=O)CSc3ccc(C(=O)NC(C)c4ccccc4)cc32)cc1 (configuration not stated)	0.97	-1.1
Cc1ccc(-n2c3c(cc(C(=O)Nc4ccc(F)cc4)c2=O)C(=O)CC(C)(C)C3)cc1	1.2	0.65
CCCN(CCC)CCCNC(=O)CN1C(=O)C(CC)Oc2ccccc21 (configuration not stated)	1	0.66
COc1ccccc1Nc1ncc(C(=O)N2CCN(c3ccccc3)CC2)c2ccccc12	1.2	7.3
FC(F)(F)c1cc(-c2cccs2)nc(NC2CCCCC2)n1	1.3	2.7
CCn1c(Sc2c(C)c3cc4c(cc3[nH]c2=O)OCO4)nnc1-c1ccccc1	1.1	1.9
O=C(NCc1ccc2c(c1)OCO2)c1ccc(C#CC2(O)CCCCC2)cc1	0.92	-1.2
CCOC(=O)c1ccc2nc(C)cc(Nc3ccccc3CC)c2c1	0.82	-2
Cc1cc(=O)n2nc(N3CCCC(C(=O)NCc4ccc5c(c4)OCO5)C3)sc2n1 (configuration not stated)	1.1	1.2
COc1cc(OC)cc(C(=O)Nc2cccc(-c3nc4ccccc4[nH]3)c2)c1	1	0.11
CCCNC(=O)C1C2C=CC3(CN(Cc4cccs4)C(=O)C13)O2 (configuration not stated)	1.3	4
(further entries)
SMILES	CBX7 AlphaScr	CBX7 AlphaScr z-score
COCCCNC(=O)CN1C(=O)COc2ccc(S(=O)(=O)N3CCCCCC3)cc21	1.1	2.7
CCOC(=O)N1CCN(c2c(N3CCN(c4ccccn4)CC3)c(=O)c2=O)CC1	1	0.25
Cc1cc(C)n2c(Nc3cccc(C(F)(F)F)c3)c(-c3ccc(O)cc3)nc2n1	0.93	-1.5
CCOC(=O)c1c(NC(=O)COc2ccc3c(c2)OCO3)sc2c1CCCCC2	0.88	-1.7
CCC(CO)NC(=O)c1cc2c(n(-c3ccccc3)c1=O)CC(C)(C)CC2=O (configuration not stated)	1	0.73
Cc1ccc(N2C(=O)CC(Cc3ccccc3)C2=O)cc1Br (configuration not stated)	1.1	2.1
O=C(O)c1nccnc1C(=O)Nc1ccc(Br)cn1	1	0.61
Cn1c(C(=O)NCCC2=CCCCC2)cc2sc(Cl)cc21	1.1	2.9
Cc1ccc(Cl)cc1NC(=O)c1oc2ccc(S(=O)(=O)N3CC(C)CC(C)C3)cc2c1C (configuration not stated)	1	0.43
Cc1ncc(CO)c2cc(C(=O)Nc3ccccc3C(N)=O)c(=O)oc12	1.1	3.8
Cc1cc(C)cc(NC(=O)Cn2cnc3c(nnn3Cc3ccc(F)cc3)c2=O)c1	0.85	-2.5
COc1ccc(-c2nn(C)c3sc(C(=O)Nc4ccccc4F)cc23)cc1OC	1.1	2.7
O=C1c2ccccc2C(Nc2ccccc2Br)N1Cc1ccccc1 (configuration not stated)	1	0.64
CN1CCN(C(=O)c2c(NC(=O)c3ccccc3)sc3c2CCCC3)CC1	0.88	-2.4
C=CCn1c(C2CC(=O)N(c3ccc(CC)cc3)C2)nc2ccccc21 (configuration not stated)	1.1	1.8
CC1CCCCC1NC(=O)CN1C(=O)COc2ccc(S(=O)(=O)N3CCCC3)cc21 (configuration not stated)	1.2	2.4
Cc1ccc(-c2nc3cc(Cl)ccc3o2)cc1NCc1ccccc1O	0.96	-0.99
COc1ccc(-n2c(C)nc3cc(C(=O)NCC(OC)OC)ccc32)cc1	1	-0.029
COc1ccc(N2CCN(C(=O)C3(S(=O)(=O)c4ccc(C)cc4)CC3)CC2)cc1	0.82	-3.2
Cc1cc(C)c(OCC(O)Cn2cnc3cc(C)c(C)cc32)c(C)c1 (configuration not stated)	0.81	-1.8
COc1nnc(-c2ccc(N3CCCCC3)c(NC(=O)C3CCCCC3)c2)c2ccccc12	0.98	-0.59
Clc1ccc2nc(-c3ccccc3)c(-c3ccccc3)nc2c1	1.3	2.1
CCN1CCN(c2ncc(C(=O)Nc3ccc(F)cc3Cl)c3ccccc23)CC1	1.6	1.2
CCOC(=O)c1cnc2c(C)cccc2c1Nc1ccc2c(c1)OCCO2	0.85	-1.7
Cc1ccc(C)c(CN2C(=O)c3ccccc3S(=O)c3ccc(C(=O)NCCN(C)C)cc32)c1 (configuration not stated)	0.93	-1.1
Cc1cccc(-c2nc(CN3CCCC(C(=O)NC4CCCCC4)C3)c(C)o2)c1 (configuration not stated)	1	0.27
COc1ccc(OC)c(NC(=O)c2c(NCc3cccs3)sc3c2CCCCC3)c1	0.43*	-8*
COc1cccc(C(=O)NCCc2cc3ccc(C)c(C)c3[nH]c2=O)c1OC	1.1	1.3
O=C(Nc1ccccc1-c1nc2ccccc2[nH]1)c1ccc(Cl)cc1	1	0.52
Cc1c(C(=O)Nc2ccc(C(N)=O)cc2)sc2nc(-c3ccccc3)cn12	0.93	-1.3

Among those listed so far, 11 have an NH in an aromatic ring:
SMILES	CBX7 AlphaScr	CBX7 AlphaScr z-score
O=C(NCCc1c[nH]c2ccccc12)c1ccc(Cl)c(NC2=NC3CS(=O)(=O)CC3S2)c1 (configuration not stated)	0.97	-0.74
CCC(Sc1nc2ccccc2[nH]1)C(=O)Nc1cc(C)on1 (configuration not stated)	0.96	-0.047
CCCN(C(=O)Cc1c(C(=O)O)[nH]c2ccccc12)c1ccc(C(C)C)cc1	0.98	-0.54
O=C(CCc1nc2sc3c(c2c(=O)[nH]1)CCCC3)NCc1ccccn1	0.34*	-3.1*
Cc1[nH]nc(-c2ccccc2)c1Sc1ccccc1	1	-0.033
CCCc1c(C(=O)OCC)[nH]c2c1C(=O)CC(c1ccccc1)C2 (configuration not stated)	1	0.73
Cc1cc2cc(CCNC(=O)Cc3ccccc3)c(=O)[nH]c2cc1C	1	1.3
CCn1c(Sc2c(C)c3cc4c(cc3[nH]c2=O)OCO4)nnc1-c1ccccc1	1.1	1.9
COc1cc(OC)cc(C(=O)Nc2cccc(-c3nc4ccccc4[nH]3)c2)c1	1	0.11
COc1cccc(C(=O)NCCc2cc3ccc(C)c(C)c3[nH]c2=O)c1OC	1.1	1.3
O=C(Nc1ccccc1-c1nc2ccccc2[nH]1)c1ccc(Cl)cc1	1	0.52

Screens as filed in PubChem.
